Assay outcomes (PubChem)
TRPV1 potentiator: enhances activation of the human vanilloid receptor TRPV1 | potentiation, % at 8.33 µM | 0.02% of 320,000 active | TRPV1-expressing cells, Fluo-8 calcium influx, capsaicin EC20 potentiation; host cell line not named in the record; control for the full effect not named in the record | Q8NER1 | AID 540277; active means potentiation above 80%; inconclusive means 30% to 80%; inactive means below 30%; note: 0% is about no effect
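Fluo-8 calcium influx in TRPV1-expressing cells, kinetic read (ex 480/em 520 nm). Compound added and read 3 min for agonist activity, followed by capsaicin at EC20 final and 2 min further read for enhancement.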
D2 potentiator: human D2 receptor positive allosteric modulation; P14416; DiscoveRx D2 beta-arrestin cells, luminescence, 90 min; 100% = 57 uM dopamine signal; potentiation, % (no concentration beside the values); 0.23% of 360,000 active; AID 624464; active = potentiation of 50% or more; inconclusive = 30% to 50%; inactive = 30% or less;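 note: compound concentration not given in the record; tested on top of an EC20 dose of dopamine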
Target sequence (P14416 whole entry, looked up): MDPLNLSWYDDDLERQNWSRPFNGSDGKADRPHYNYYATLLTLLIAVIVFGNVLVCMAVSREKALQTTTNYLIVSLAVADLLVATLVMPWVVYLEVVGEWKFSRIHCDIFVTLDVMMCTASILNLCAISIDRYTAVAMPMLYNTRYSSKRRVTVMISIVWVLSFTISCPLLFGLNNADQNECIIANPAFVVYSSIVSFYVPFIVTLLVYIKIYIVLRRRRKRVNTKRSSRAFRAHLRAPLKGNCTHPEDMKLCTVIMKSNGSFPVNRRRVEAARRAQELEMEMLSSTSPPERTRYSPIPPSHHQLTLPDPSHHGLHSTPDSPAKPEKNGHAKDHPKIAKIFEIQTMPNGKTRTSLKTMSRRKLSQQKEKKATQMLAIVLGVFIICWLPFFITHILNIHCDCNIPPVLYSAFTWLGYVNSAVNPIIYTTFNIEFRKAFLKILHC
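PathHunter D2 cells, attached overnight at 37 deg C, received compound in DMSO plus dopamine at EC20 (50 nM final) for 90 min at 37 deg C. Beta-arrestin recruitment was read as luminescence after 1 h with detection reagent at ambient temperature.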
CtBP-E1A blk: blocks the CtBP interaction with E1A. AlphaScreen GST-E1A/His-CtBP binding, 1536-well; active compounds read low; control for the full effect not named in the record. activity change, % (concentration not given with the values). 0.49% of 340,000 active. AID 651724; in the data active means activity change below about -65%; inconclusive means about -30% to -65%; inactive means above about -30%; note: % is set by controls: 0 for no effect and ±100 for the full control effect
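In 5 uL wells, 23 nL compound meets equimolar GST-E1A and His-CtBP (5X stock 125 nM each) for 2 h, 37 °C. Beads (5X, 50 ug/mL) then 1 h, 37 °C, dark.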
Sfp inh: Sfp phosphopantetheinyl transferase inhibition. Q9F4F7. Biochemical Sfp PPTase activity, qHTS. Potency, µM, for the others: max response, negative = inhibition, hits mostly inhibitors. 3.5% of 310,000 active; active = well fitted inhibition curve with a large enough effect; inconclusive = small, poorly fitted or top-dose-only effect, or another doubt; inactive = no such curve, though single readings can be large or run the other way;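 note: the enzyme is Sfp with the accession as filed and its product quenches rhodamine fluorescence; potency is the fitted concentration of half-maximal effect; 0% = enzyme reaction without inhibitor and -100% = no enzyme wells; top concentration of the series not given in the record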
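With Hepes-Na pH 7.6 buffer containing 10 mM MgCl2, Sfp (15 nM) modified BHQ-2-YbbR (12.5 uM) using rhodamine-CoA (5 uM). Two reads 30 minutes apart at 525/598 nm yielded each well's rate.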
PINK1 expr mod: modulators of PINK1 expression. 0.2% of 410,000 active. Potency, µM (series often up to 76.6 µM), inactives show top-dose activation (PINK1 increase), hits mostly activators. AID 624263. PINK1 immunofluorescence, high-content cytometry, 24 h; active = well fitted activation curve with a large enough effect; inconclusive = small, poorly fitted or top-dose-only effect; inactive = flat fitted curve, though single readings scatter; cell line not stated here;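 note: potency is the fitted concentration of half-maximal effect; % of control where 0% means no effect; nearly all actives have a fitted effect of over 65% in size; a mitochondrial uncoupler was the plate control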
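A stable cell line was treated with compounds at 5 concentrations for 24 hours, with CCCP as control. PINK1 levels and mitochondrial localization were measured by immunofluorescence with mitochondrial, cell and nuclear markers after fixation, read by laser-scanning cytometry.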
Six1-Eya2 blk: Six1/Eya2 interaction inhibition; Q15475+O00167; AlphaScreen GST-Six1/His-Eya2 binding, biochemical; active compounds read low; control for the full effect not named in the record; activity change, % (concentration not given with the values); 0.56% of 360,000 active; AID 651725; in the data active = activity change below about -65%; inconclusive = about -30% to -65%; inactive = above about -30%; note: % is set by controls: 0 for no effect and ±100 for the full control effect
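Six1/Eya2 binding was read as AlphaScreen signal after compounds were pinned into GST-Six1 plus His-tagged Eya2 (5X stock 250/500 nM) in pH 8.0 Tris/NaCl/TCEP buffer, beads added, then incubated 1 h, 37 C, dark.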
D2 ag: activates the human D2 dopamine receptor; AID 624465; P14416; DiscoveRx PathHunter D2 beta-arrestin, luminescence, 90 min; 100% = 57 uM dopamine signal; activation, % (test concentration not listed); 0.084% of 360,000 active; in the data active = activation above about 40%; inconclusive = about 15% to 40%; inactive = below about 15%; note: compound concentration not given in the record; the text of the record calls up to 30% inactive
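Agonist mode: compounds alone added to overnight-plated D2 PathHunter cells for 90 min at 37 C, with 57 uM final dopamine (EC100) defining full response. Beta-arrestin recruitment detected by chemiluminescent reagent, read after 1 h at ambient temperature.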
* marks the source's active call; other numbers are inactive results; u = inconclusive; x = no result given; ! = not confirmed by another sample; [ ] = dose if it differs, or a comment.

SMILES | TRPV1 potentiator | D2 potentiator | CtBP-E1A blk | Sfp inh | PINK1 expr mod | Six1-Eya2 blk | D2 ag
Cc1ccc(Cc2c(-c3ccc(C#N)cc3)nc3c4ccccc4ccn23)cc1 | x | -6 | 0 | x | 2.7% | 1 | -3.2
O=[N+]([O-])c1ccc(/C=N/n2c(-c3ccccc3)n[nH]c2=S)cc1 | -8 | 6 | 0 | u | 0.8% | -18 | 15
Cc1ccc(NC(=O)CN2C(=O)CNC2=O)cc1 | 0 | -5 | -6 | 8% | 0.8% | 0 | -6.8
COc1cc(C)c(C(=O)CSc2nnc(CNC(=O)c3ccco3)n2C)cc1C | 14 | -4 | -2 | 15% | 4.2% | 5 | -2.9
CCOC(=O)CN1CCc2c(C)nc3c(-c4ccc(OC)c(OC)c4)cnn3c21 | -2 | 4 | -5 | -18% | 5.1%[38.3 µM] | -4 | -1.8
CCn1c(SCC(=O)N2CCOCC2)nnc1C(C)NC(=O)c1ccccc1 (stereo not given) | -7 | 1 | -2 | 14% | 0.5% | -1 | -0.4
COc1ccc(C(CNC(=O)CN2C(=O)NC3(CCCC3)C2=O)N(C)C)cc1 (stereo not given) | 20 | -3 | -4 | 9% | 0.5% | 3 | -5.7
Cc1ccc(S(=O)(=O)NCC(=O)N(CC(=O)NC2CCCCC2)CC2CCCO2)cc1 (stereo not given) | 9 | -7 | 3 | 12% | -3.0%[38.3 µM] | 2 | -2.9
CC1(C(=O)NS(=O)(=O)c2ccc(Cl)s2)CCN1C(=O)c1ccccc1CCc1ccccc1 (stereo not given) | x | -2 | 4 | x | 1.5% | 2 | 5.4
O=C(CCN1C(=O)C2C3C=CC(C3)C2C1=O)N1CC(=O)N(CCc2ccccc2)C(=O)C1 (stereo not given) | -6 | -20 | -1 | 17% | 0.4% | -1 | -3.7
COc1ccccc1NC(=O)CN1CCN(c2ccccc2F)CC1 | -4 | -14 | -3 | 9% | -1.9% | 1 | 1.3
Cc1ccccc1-c1nc(CS(=O)(=O)CC(=O)N2CCc3ccccc32)c(C)o1 | -1 | -5 | -3 | 17% | 2.1% | -1 | -5.0
Cc1nc(SCC(=O)NCC2CCCO2)c2cc(-c3ccccc3)sc2n1 (stereo not given) | -13 | -6 | -3 | x | 4.9% | 2 | -1.3
CN(C)c1ccc(C(=S)N2CCN(C(=S)Nc3ccccc3)CC2)cc1 | 0 | -7 | -17 | 19% | -0.5% | -15 | -3.4
CCOc1ccccc1C(=O)Nc1nnc(SCC(=O)N2CCOCC2)s1 | u | 1 | 2 | 13% | 1.0% | -4 | -0.7
CN1OC[C@@H]2CN(S(=O)(=O)c3cccc4ccccc34)[C@H](c3ccc(-c4ccccc4)cc3)C[C@@H]21 | x | -4 | -8 | x | 0.4% | -15 | -10
CCCC(=O)Nc1nc2c(OC)ccc(OC)c2s1 | -12 | -2 | -4 | 10% | 0.6% | 2 | -4.2
CCOC(=O)N1CCC(Nc2cccc(SC)c2)CC1 | u | 1 | -11 | 56µM* | 24%[38.3 µM] | -22 | 8.5
CCN(CC(=O)Nc1ccc2c(c1)OCCO2)C(=O)C1CCCCC1 | 0 | -17 | -3 | 6% | -2.1% | -3 | -2.3
O=C(c1cnn2c1NC(c1ccco1)CC2C(F)(F)F)N1CCN(c2cccc(Cl)c2)CC1 (stereo not given) | 19 | -2 | -22 | -5% | 0.1% | -25 | -0.6
COc1cccc(NC2C=CS(=O)(=O)C2)c1 (stereo not given) | -9 | -3 | 2 | 15% | 0.3% | 8 | -0.4
Cc1ccc(-c2c(C(=O)N/N=C/c3ccc4c(c3)OCO4)nnn2-c2nonc2N)cc1 | 2 | 10 | -9 | 20% | -0.4% | 2 | 2.9
COc1ccc(CNC(=O)Cn2cc(C(F)(F)F)ccc2=O)cc1 | 30 | -15 | 7 | -8% | 0.5% | 5 | 0.1
Cc1ccc(NC(=O)CCCCCN2C(=O)[C@@H]3Cc4ccccc4CN3C2=O)c(Cl)c1 | -11 | -21 | 3 | 16% | -1.2% | -4 | -2.4
Cc1cccc2cc(CN(Cc3ccco3)C(c3nnnn3CCc3ccccc3)C(C)C)c(=O)[nH]c12 (stereo not given) | 26 | -7 | -7 | u | 0.8% | -9 | -2.7

Additional results follow.
SMILES | TRPV1 potentiator | D2 potentiator | CtBP-E1A blk | Sfp inh | PINK1 expr mod | Six1-Eya2 blk | D2 ag
COC(=O)c1cn(NC(=O)Cn2nc([N+](=O)[O-])c(Br)c2C)c(=O)c2ccccc12 | 8 | -19 | -27 | 17% | -0.7% | u | 3.3
Cc1ccc(C)c(NC(=O)CSc2ncnc3nc[nH]c23)c1 | 12 | -21 | 2 | 9% | -5.7%[38.3 µM] | 0 | -0.8
CCC1(C(=O)OC)NC(c2ccco2)C2C(=O)N(c3ccc(F)cc3)C(=O)C21 (stereo not given) | 0 | -18 | x | -10% | -1.4% | 6 | -4.6
CCN(C(=O)CSc1ccc(S(=O)(=O)N2CCOCC2)cn1)c1ccccc1 | -22 | 10 | x | x | 0.9% | -4 | 1.1
COc1cccc(CN2CC(C(=O)NCCc3ccccc3C(F)(F)F)CCC2=O)c1 (stereo not given) | -12 | -12 | -1 | -1% | -1.7% | 4 | 4.3
CC(=O)Nc1ccc(NC(=O)c2cccc(Oc3ccccc3)c2)cc1 | 7 | 1 | 7 | 2% | 3.9% | -1 | -1.0
Cc1cc(C(=O)N/N=C/c2cn(C)nc2C)c2ccccc2n1 | -1 | 4 | x | 2% | 2.8% | 5 | 3.6
O=C(Cn1cnc([N+](=O)[O-])c1)c1ccc(F)cc1 | 4 | 1 | 6 | x | 0.9% | 14 | -1.0
O=C(Cn1ncn2c(cc3ccccc32)c1=O)NCc1ccco1 | 19 | -7 | 13 | 22µM* | x | -13 | -1.8
Cc1cc(C)n(-c2nc3nonc3nc2Nc2cccc(C)c2C)n1 | 26 | 5 | x | 7% | 6.1% | -21 | -1.5
Cc1ccccc1-c1csc(C(O)c2cccc(Cl)c2)n1 (stereo not given) | x | -7 | 3 | x | 11% | 11 | 3.0
Clc1ccc(-c2nc3ccccc3[nH]2)cn1 | -9 | 1 | -1 | 3% | -0.5% | -1 | 1.0
O=C(CNCc1cccc(Cl)c1)N1CCc2ccccc2C1 | -3 | -23 | 9 | -25% | -0.9% | -2 | 0.0
CCN(CC)S(=O)(=O)c1ccc(OC)c(N)c1 | u | -4 | 5 | 0% | 2.5% | 9 | 1.5
Cc1nc2sccn2c(=O)c1CCN1CCC(=C(c2ccc(F)cc2)c2ccc(F)cc2)CC1 | -17 | -37 | -22 | 56µM*! | -0.7% | u | -1.9
N#CC(C#N)=C(Nc1ccc(F)cc1)SCc1cccc(Br)c1 | 2 | -16 | 10 | 23% | u | 0 | -0.7
COc1ccccc1Nc1nnc(SCC2CCCCO2)s1 (stereo not given) | 24 | -11 | 12 | -8% | 16% | 1 | -2.9
CNC(=O)c1c(NC(=O)c2ccc(N3C(=O)CCC3=O)cc2)sc2c1CCC(C)C2 (stereo not given) | x | -2 | 10 | x | -1.0% | -2 | -1.8
CCN(C(=O)c1ccccc1)c1ccc([N+](=O)[O-])cc1 | -2 | -3 | -19 | 11% | 0.1% | -5 | 6.3
CCC(=O)Nc1sc2c(c1C#N)CCC2 | -4 | 7 | 7 | 0% | 2.2% | 14 | -2.4
O=C(CN1CCN(c2ccc(O)cc2)CC1)Nc1cc([N+](=O)[O-])ccc1Cl | -6 | 16 | -7 | u | -2.5% | -7 | 10
COc1ccc(OCc2cc(C(=O)NCCc3ccccc3)no2)c(Cl)c1 | -11 | -9 | 9 | 10% | 9.2% | 8 | -2.3
COc1ccccc1N(C(=O)c1cncc(Br)c1)c1nc(-c2ccc(C)cc2)cs1 | 9 | -4 | x | -2% | 2.6% | -6 | -6.0
c1coc(-c2nnc(NC3=NCCC3)o2)c1 | -13 | -13 | -3 | -8% | 0.1% | -5 | -1.6
COc1cc(/C=N/NC(=O)c2cncc(Br)c2)cc([N+](=O)[O-])c1O | -3 | -14 | -96* | 9% | -0.6% | -91* | -9.2

Additional structures.
SMILES | TRPV1 potentiator | D2 potentiator | CtBP-E1A blk | Sfp inh | PINK1 expr mod | Six1-Eya2 blk | D2 ag
CN=C(Nc1cc(C)nn1CCC#N)c1ccccc1F | -5 | -1 | -14 | 1% | -2.7%[38.3 µM] | -2 | 3.4
COc1ccc(/C(O)=C2/C(=O)C(=O)N(CCCN(C)C)C2c2cccc(Cl)c2)cc1OC (stereo not given) | 3 | -10 | 3 | 17% | 3.9% | 2 | -1.2
O=C(CN1CCCN(S(=O)(=O)c2ccc(Br)s2)CC1)Nc1ccc(Cl)cc1 | -2 | -11 | -3 | -8% | 0.4%[38.3 µM] | -1 | -1.6
Cc1nc2scc(-c3cccs3)c2c(=O)n1-n1cccc1 | -1 | -15 | 0 | u | -1.2% | -7 | -3.8
COc1cc(OC)c2c(c1)C(=O)c1cc(OC)cc(OC)c1C2=O | 16 | 2 | 4 | 13% | 16% | 2 | 0.4
O=S(=O)(c1ccc2nc(-c3ccccc3)[nH]c2c1)N1CCN(c2cccc(Cl)c2)CC1 | 13 | 5 | 3 | 15% | 12% | -19 | 0.4
CCOC(=O)N1CCN(C(=O)CCS(=O)(=O)c2ccc3c(c2)CCN3C(=O)CC)CC1 | -5 | -9 | -2 | 11% | -0.2% | 1 | -4.3
COc1ccc(CNC(=O)C(C)Sc2nc3ccccc3c(=O)n2CC2CCCO2)cc1 (stereo not given) | -9 | -18 | -2 | x | -0.5% | 5 | 0.4
Cn1c(=O)c2[nH]c(-c3ccc(S(=O)(=O)O)cc3)nc2n(C)c1=O | x | -14 | -23 | 20% | 2.3% | u | -5.3
O=C(CSc1nnc(-c2ccc(Cl)cc2)n1Cc1ccco1)c1cccs1 | 21 | -18 | 54 | 22µM* | 0.3%[38.3 µM] | -2 | -0.7

Complete entries from above. Screens in order: TRPV1 potentiator	D2 potentiator	CtBP-E1A blk	Sfp inh	PINK1 expr mod	Six1-Eya2 blk	D2 ag
Record of CN=C(Nc1cc(C)nn1CCC#N)c1ccccc1F → -5	-1	-14	1%	-2.7%[38.3 µM]	-2	3.4
Record of COc1cc(OC)c2c(c1)C(=O)c1cc(OC)cc(OC)c1C2=O → 16	2	4	13%	16%	2	0.4

An excerpt of these results, as labelled records.
> CCN(C(=O)CSc1ccc(S(=O)(=O)N2CCOCC2)cn1)c1ccccc1
  TRPV1 potentiator = -22; D2 potentiator = 10; CtBP-E1A blk = x; Sfp inh = x; PINK1 expr mod = 0.9%; Six1-Eya2 blk = -4; D2 ag = 1.1
> COc1cccc(CN2CC(C(=O)NCCc3ccccc3C(F)(F)F)CCC2=O)c1 (stereo not given)
  TRPV1 potentiator = -12; D2 potentiator = -12; CtBP-E1A blk = -1; Sfp inh = -1%; PINK1 expr mod = -1.7%; Six1-Eya2 blk = 4; D2 ag = 4.3
